RanGTP-Imp inh: inhibitors of RanGTP-importin-beta interaction, primary screen, biochemical, FRET, CFP-Ran, YFP-importin-beta, homogeneous; actives 1.1% (n = 300,000); cell-free CFP-Ran/YFP-importin-beta FRET ratio; inhibition, % (no concentration beside the values);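 active = most replicates above 15%; inconclusive = exactly half above 15%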;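 note: 0% = DMSO wells and 100% = Ran loaded with GDP instead of GTP; wells of about 40 µL received 100 nL stock; the first replicate is given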
Beta cell apopt: blocks beta cell apoptosis. INS-1E cytokine-induced death, ATP luminescence, 48 h; percent of positive-control rescue, neutral wells zero. protection from apoptosis, % (concentration not given with the values). actives 0.8% (n = 300,000). AID 435005;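 active = all replicates at 75% or more, or half of them and the mean; inconclusive = half reach 75% but not the mean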;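 note: 0% = cytokine-treated negative control wells and 100% = positive control rescue; higher means more ATP so stronger rescue from cytokine killing; wells of about 40 µL received 100 nL stock; the first replicate is given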
MLL AF4-AF9 inh: blocks AF4 peptide binding to human AF9; inhibition, % at 10 µM; P42568; actives 0.47% (n = 350,000); AlphaScreen, biotin-AF4 peptide binding to FLAG-AF9;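 active = every replicate reaching a set inhibition limit, whatever the replicate mean, cut at about 25% in these data; inconclusive = mean inhibition reaches that limit but some replicates miss it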;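 note: 0% = plate neutral control median and 100% = total signal loss; the record names both 10 and 1 µM as test concentration; the first replicate is given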
Target sequence (P42568 whole entry, looked up): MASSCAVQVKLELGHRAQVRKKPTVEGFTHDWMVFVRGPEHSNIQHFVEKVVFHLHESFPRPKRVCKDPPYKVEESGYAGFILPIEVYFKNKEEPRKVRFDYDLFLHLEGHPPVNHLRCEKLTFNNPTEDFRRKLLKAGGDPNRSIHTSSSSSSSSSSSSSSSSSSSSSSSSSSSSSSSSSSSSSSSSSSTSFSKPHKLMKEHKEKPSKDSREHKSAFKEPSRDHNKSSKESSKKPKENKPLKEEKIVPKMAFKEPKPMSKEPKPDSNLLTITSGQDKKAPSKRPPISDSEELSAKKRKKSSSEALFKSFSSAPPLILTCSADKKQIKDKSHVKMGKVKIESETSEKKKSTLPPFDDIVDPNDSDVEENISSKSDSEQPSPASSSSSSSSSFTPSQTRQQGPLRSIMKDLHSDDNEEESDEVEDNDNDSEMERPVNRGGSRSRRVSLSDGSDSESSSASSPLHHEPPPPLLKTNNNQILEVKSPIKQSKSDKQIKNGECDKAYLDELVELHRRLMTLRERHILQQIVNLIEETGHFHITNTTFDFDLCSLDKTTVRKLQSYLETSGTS
FGF22 binding: FGF22 (human) thermal shift binding; Q9HCT0; recombinant FGF22 thermal shift, SYPRO orange fluorescence; percent of sucrose octasulfate shift, DMSO zero; calls only at 9.99 µM; actives 1.5% (n = 340,000);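 active = melting point raised past a set limit in the mean and every replicate; inconclusive = no clear call; three in four hits are not shown here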
Target sequence (Q9HCT0 whole entry, looked up): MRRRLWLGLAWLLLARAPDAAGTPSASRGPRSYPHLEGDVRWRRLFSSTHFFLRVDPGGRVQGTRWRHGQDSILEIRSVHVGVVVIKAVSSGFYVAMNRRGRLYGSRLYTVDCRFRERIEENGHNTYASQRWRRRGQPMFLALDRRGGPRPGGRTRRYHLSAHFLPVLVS
Calb FLC: affects C. albicans growth with fluconazole | growth inhibition, % (no concentration beside the values) | AID 1979 | C. albicans CaCi-2 (fluconazole-resistant clinical isolate) + fluconazole, Alamar Blue growth, 48 h | actives 0.57% (n = 300,000);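 active = most replicates above 75%; inconclusive = exactly half above 75%; inactive = most below 75%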;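 note: all wells also contain fluconazole at 8 µg/ml as a sub-toxic cotreatment; 0% = median of DMSO wells and 100% = median of geldanamycin control wells; wells of about 8 µL received 7.5 nL stock; the first replicate is given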
ALR H2O2 inh: blocks human ALR sulfhydryl oxidase activity | P55789 | purified ALR, DTT oxidation, H2O2 HRP-luminol luminescence | inhibition, % (concentration not given with the values) | actives 3.8% (n = 290,000) | AID 485317;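 active = mean and each replicate at 75% or more; inconclusive = only one of the two met; inactive = neither met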;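 note: stock transfer was 7.5 nL into about 7.5 µL; 0% = neutral wells and 100% = wells with inactivated enzyme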
Target sequence (P55789 whole entry, looked up): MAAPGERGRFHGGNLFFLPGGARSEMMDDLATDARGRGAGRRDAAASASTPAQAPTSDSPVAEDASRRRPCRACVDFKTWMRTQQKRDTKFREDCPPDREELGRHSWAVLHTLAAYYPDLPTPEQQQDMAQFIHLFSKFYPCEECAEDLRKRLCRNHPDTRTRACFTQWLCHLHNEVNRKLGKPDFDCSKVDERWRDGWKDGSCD
rRNA inh HTS: selective bacterial rRNA inhibition in E. coli; actives 1.6% (n = 350,000); GFP signal change (wild-type ribosome), % (no concentration beside the values); E. coli WT GFP vs humanized-ribosome RFP mutants, fluorescence, 24 h; hits give low values; DMSO median 0, no signal -100; AID 720706;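 active = significant combined selectivity score with lowered wild-type GFP, culture density cut under 30%, mutant RFP and density less affected; inactive = any of these conditions unmet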; note: one replicate is shown; some compounds called inactive have numbers as strong as hits
T cruzi inh: T. cruzi replication inhibition | actives 1.4% (n = 300,000) | T. cruzi beta-gal in NIH3T3, luminescence, 90 h | inhibition, % (test concentration not listed);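 active = mean inhibition across valid replicates above about 55%, limit read from the data; inconclusive = mean below that limit but half or more replicates reach it; inactive = mean below it, under half of replicates reach it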;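 note: signal also drops with host cell toxicity which is not excluded here; 0% = plate median of DMSO wells and 100% = zero luminescence signal; higher percent means less beta-gal luminescence so fewer parasites; stock transfer was 50 nL into about 50 µL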
rRNA inh HTS OD600: recorded beside rRNA inh HTS, whose call it bears; OD600 change, %; measured here: OD600 growth;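 optical density of the mix in the first replicate; 0 = DMSO median and -100 = no signal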
rRNA inh HTS RFP: recorded beside rRNA inh HTS, whose call it bears; RFP signal change, %; measured here: RFP humanized mutant strains;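 first replicate; 0 = DMSO median and -100 = no signal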
Starred values were filed as active, the others as inactive; i = inactive; ? = inconclusive; nt = no result given. This is a subset. The share of hits here may be higher or lower than overall.

SMILES	RanGTP-Imp inh	Beta cell apopt	MLL AF4-AF9 inh	FGF22 binding	Calb FLC	ALR H2O2 inh	rRNA inh HTS	rRNA inh HTS OD600	rRNA inh HTS RFP	T cruzi inh
OC1(CN2CCOCC2)C2CC3CC(C2)CC1C3 (configuration not stated)	2.7	-2	nt	nt	-9	-1	nt	nt	nt	1
Cc1nn(Cc2ccccc2)c(C)c1C(=O)OCC(=O)NC1CCS(=O)(=O)C1 (configuration not stated)	-0.5	-3	nt	nt	-10	-15	nt	nt	nt	1
COC(=O)C1=C(c2cccc(OC)c2OC)C[C@@H]2CC[C@H]1N2C(=O)NCc1ccccc1	6.2	4	-0.1	i	-8	-1	3	4	-1.1	4
O=C(NC1CN2CCC1CC2)c1cccc(Cl)c1 (configuration not stated)	-1.2	-5	3.8	i	-8	-23	9	12	1.6	-8
CC(C)CCC1(CCc2ccncc2)C(=O)NC(=O)NC1=O	-2.3	-1	nt	nt	-3	nt	nt	nt	nt	3
Brc1ccccc1	-1.7	-5	-9.2	i	-3	-4	nt	nt	nt	-4
CCCCCn1c(=O)c(C(=O)Nc2nc3ccccc3[nH]2)c(O)c2ccccc21	1.7	80*	0.1	nt	5	-3	1	7	1.6	-33
CN(C)c1ccc(P(=S)(N(C)C)N(C)C)cc1	1.1	-2	nt	nt	5	99*	nt	nt	nt	9
CC(C(=O)c1ccccc1)N1C(=O)c2ccccc2C1=O (configuration not stated)	0.4	-5	nt	nt	3	9	nt	nt	nt	2
COC(=O)C1=C(c2c(C)noc2C)C[C@@H]2CC[C@H]1N2C(=O)NC(C)C	nt	-7	-2.4	i	nt	3	0	-7	3.8	nt
CCCCn1c(=O)c(C(=O)NCc2ccc(Cl)cc2)c(O)c2ccccc21	1.2	nt	-1.4	nt	11	-1	17	8	2.8	22
COCCOC(=O)c1c(C)n(C)c2ccc(OC(=O)N(C)C)cc12	-3.5	-12	nt	nt	6	-2	nt	nt	nt	nt
Cc1nn(-c2ccccc2)c(C)c1NC(=O)COC(=O)Cc1ccccc1	0.1	1	3.7	i	-2	nt	2	7	-1.4	-10
CC(C)Oc1cccc(C(=O)C2CCCN(C3CCOCC3)C2)c1 (configuration not stated)	3.9	-5	-0.6	i	-14	-9	19	13	0.1	-14
O=C(c1cccn2c(=O)c3ccccc3nc12)N1CCC2(CC1)OCCO2	4.3	-7	nt	nt	7	0	nt	nt	nt	-15
CC(=O)c1ccccc1NC(=O)C1C2CCC(O2)C1C(=O)O (configuration not stated)	nt	-13	nt	nt	-12	-24	nt	nt	nt	-10
Cc1cc(/C=C2\C(=O)NC(=O)N(c3ccc(Cl)cc3)C2=O)c(C)n1C	-13	-1	2.0	i	-9	2	5	5	5.1	-24
O=[N+]([O-])c1cccc(NP(=O)(Oc2ccccc2)Oc2ccccc2)c1	0.7	2	9.6	i	-21	-2	-12	-2	2.0	-18
O=[N+]([O-])c1ccc(N2CCNCC2)cc1NCC1CCCO1 (configuration not stated)	-3.5	-5	nt	nt	-1	-5	nt	nt	nt	3
Cc1ccc(-n2c(O)c(C=NCCCn3ccnc3)c(=O)[nH]c2=O)cc1	1.2	1	-5.6	i	-1	3	24	12	2.0	5
CN(C)C(=O)Oc1cccc(-c2cn3cc(Cl)ccc3n2)c1	1.2	0	nt	nt	5	-1	nt	nt	nt	1
O=C(c1ccc(N2CC3CC(C2)c2cccc(=O)n2C3)c([N+](=O)[O-])c1)N1CCCC1 (configuration not stated)	7.6	-2	-3.7	i	-9	0	11	11	0.1	1
COc1ccc(CC2c3cc(OC)c(OC)cc3CCN2C)cc1O (configuration not stated)	1.6	-7	-0.7	i	-3	13	-3	12	7.4	4
CC(=O)OC1(c2ccc(C)cc2)CN2CCC1c1ccccc12 (configuration not stated)	0.5	-2	nt	nt	-10	nt	nt	nt	nt	-24
O=C(CN1CCCC1=O)NCCc1ccccc1	-2.8	-8	0.5	i	-11	-4	13	10	2.0	-6

(list continues)
SMILES	RanGTP-Imp inh	Beta cell apopt	MLL AF4-AF9 inh	FGF22 binding	Calb FLC	ALR H2O2 inh	rRNA inh HTS	rRNA inh HTS OD600	rRNA inh HTS RFP	T cruzi inh
COC(=O)c1c(C)n(Cc2ccco2)c2ccc(O)cc12	-3.8	6	-14	i	-3	-29	-5	12	5.6	7
COc1ccc(N=C(C)c2c(O)n(C3CCCCC3)c(=O)[nH]c2=O)c(OC)c1	-2.9	-5	nt	nt	-3	nt	nt	nt	nt	12
O=c1[nH]c(=O)n(C2CCCCC2)c(O)c1/C=C/C=Nc1ccccc1	61*	-3	-12	i	-4	19	25	5	-2.4	-17
Cc1ccc(CN2CCCN(Cc3ccc(Cl)cc3)S2(=O)=O)cc1	-1.4	nt	0.5	i	-2	nt	3	10	0.6	-1
COC(=O)C1=C(c2ccc(F)cc2F)C[C@@H]2CC[C@H]1N2C	nt	-2	-2.5	i	nt	-7	8	4	1.7	nt
CCCC(=O)NC(Oc1ccc(Cl)cc1Cl)C(Cl)(Cl)Cl (configuration not stated)	-1.1	-2	-2.9	i	-3	6	10	5	0.7	6
COc1ccc2[nH]c(C)c(CCNCc3cc(OC)c(OC)c(OC)c3)c2c1	i	4	14	i	-3	-15	10	0	3.8	11
Cc1cc(N2C(=O)CC(N3CCC(n4c(=O)[nH]c5ccccc54)CC3)C2=O)no1 (configuration not stated)	-2.2	4	nt	nt	-27	-2	nt	nt	nt	-13
N#Cc1ccccc1NC(=O)CN1CC=C(c2ccccc2)CC1	2.0	5	-1.3	i	18	1	-4	-9	2.2	0
C/C(=N\NC(=O)c1ccccc1)c1c(O)n(C2CCCCC2)c(=O)[nH]c1=O	0.8	2	-5.6	i	2	93*	3	4	-2.7	-12
COc1cccc(CC(=O)N2CCN(Cc3cccc(Cl)c3)CC2)c1	1.2	nt	6.9	nt	8	-4	-8	-13	4.1	14
CCOC(=O)C1(c2ccccc2)CCN(CC(=O)Nc2cccc3ccccc23)CC1	1.5	1	nt	nt	-7	-46	nt	nt	nt	46
Cc1ccc(NC2=NCCCS2)cc1Cl	1.6	-4	0.9	i	-22	-1	-1	-8	-1.8	33
O=C(NCC(c1cccnc1)N1CCOCC1)Oc1ccccc1 (configuration not stated)	?	-5	nt	nt	0	nt	nt	nt	nt	-1
O=C1/C(=C\c2ccc(Cl)c(Cl)c2)N2CCC1CC2	7.9	9	5.1	i	-25	16	nt	nt	nt	16
Cc1cc(C)cc(N2C(=O)NC(=O)/C(=C/c3cccn3-c3ccc(Cl)cc3)C2=O)c1	-0.3	-7	-3.9	i	-4	4	13	12	9.7	-21
CCCCCn1c(=O)c(C(=O)Nc2ccccc2Cl)c(O)c2ccccc21	?	64	0.0	i	-13	-10	10	23	3.9	-19
COc1ccc(CN2CCN(C(=O)COc3ccc4ccccc4c3)CC2)c(OC)c1	5.5	-2	3.6	i	19	-17	-11	-14	2.5	24
Cc1[nH]c2ccc(OC(F)(F)F)cc2c1CCNCc1ccc(Cl)cc1	-1.6	21	24	i	25	-17	-56	-78	-20	40
C=CCN1C(=O)/C(=C\c2ccc(N3CCOCC3)o2)C(=O)NC1=S	-11	nt	-3.0	i	-4	6	21	14	1.8	-18
CCCCn1c(N)c(C(=O)OCC2CCCO2)c2nc3ccccc3nc21 (configuration not stated)	?	16	-24	i	9	-7	-44	-69	-19	11
COC(=O)C1=C(c2cccc(C#N)c2)C[C@@H]2CC[C@H]1N2C(=O)NCCCOC(C)C	nt	-2	-2.3	i	nt	0	6	7	-2.4	nt
COCCOC(=O)C1=C(N)Oc2c(c(=O)oc3ccccc23)[C@@]12C(=O)Nc1ccccc12	-0.7	-4	nt	nt	-16	nt	nt	nt	nt	-15
C=Cn1ccnc1P(=S)(c1ccn(C)c1)c1nccn1C=C	4.3	nt	0.1	i	-1	3	5	6	-2.3	-13
CC(=O)Nc1nnc(CCN(CCc2nnc(NC(C)=O)s2)[N+](=O)[O-])s1	4.9	-2	nt	i	-5	-4	5	9	-0.8	-12

Rewritten with two lines to a compound: 6 of the compounds above
Order of values: RanGTP-Imp inh | Beta cell apopt | MLL AF4-AF9 inh | FGF22 binding | Calb FLC | ALR H2O2 inh | rRNA inh HTS | rRNA inh HTS OD600 | rRNA inh HTS RFP | T cruzi inh
> C/C(=N\NC(=O)c1ccccc1)c1c(O)n(C2CCCCC2)c(=O)[nH]c1=O
  0.8 | 2 | -5.6 | i | 2 | 93* | 3 | 4 | -2.7 | -12
> COc1cccc(CC(=O)N2CCN(Cc3cccc(Cl)c3)CC2)c1
  1.2 | nt | 6.9 | nt | 8 | -4 | -8 | -13 | 4.1 | 14
> CCOC(=O)C1(c2ccccc2)CCN(CC(=O)Nc2cccc3ccccc23)CC1
  1.5 | 1 | nt | nt | -7 | -46 | nt | nt | nt | 46
> Cc1ccc(NC2=NCCCS2)cc1Cl
  1.6 | -4 | 0.9 | i | -22 | -1 | -1 | -8 | -1.8 | 33
> O=C(NCC(c1cccnc1)N1CCOCC1)Oc1ccccc1 (configuration not stated)
  ? | -5 | nt | nt | 0 | nt | nt | nt | nt | -1
> O=C1/C(=C\c2ccc(Cl)c(Cl)c2)N2CCC1CC2
  7.9 | 9 | 5.1 | i | -25 | 16 | nt | nt | nt | 16

Next section:
SMILES	RanGTP-Imp inh	Beta cell apopt	MLL AF4-AF9 inh	FGF22 binding	Calb FLC	ALR H2O2 inh	rRNA inh HTS	rRNA inh HTS OD600	rRNA inh HTS RFP	T cruzi inh
COCCNCCOc1ccc(C(C)(C)c2ccccc2)cc1	-1.6	-1	10	i	?	-4	5	-29	6.5	20
CC(C)NC(=O)c1ccc(N2CC3CC(C2)c2cccc(=O)n2C3)c([N+](=O)[O-])c1 (configuration not stated)	2.0	-6	-2.3	i	-15	nt	8	15	-3.5	-5
CN1C(=O)C(=Cc2sc(=O)n(-c3ccccc3)c2N2CCCCC2)C(=O)N(C)C1=O	5.7	nt	-1.4	i	6	nt	14	3	4.1	-5
CCOc1c(P(=S)(N(C)C)N(C)C)c(C)nn1-c1ccccc1	3.2	-3	nt	nt	6	4	nt	nt	nt	5
CCCn1c(C(=O)c2ccc(OC)cc2)nc2ccccc21	3.8	-6	0.0	i	7	0	-32	-38	-7.8	-7
CC1CCCCN1Cc1ccc(Cl)nc1 (configuration not stated)	1.3	nt	-4.3	i	26	-9	8	16	-1.4	0
O=C(c1cnn2c(C(F)(F)F)cc(-c3ccccc3)nc12)N1CCC2(CC1)OCCO2	0.2	-4	nt	nt	12	0	nt	nt	nt	19
CC1CN=C(Nc2ccc(F)c(Cl)c2)S1 (configuration not stated)	0.8	-3	-0.8	i	-2	-1	nt	nt	nt	3
CCOC(=O)N(C)c1ccc(C(O)(C(=O)OCC)C(F)(F)F)cc1 (configuration not stated)	-2.5	-3	nt	nt	-24	-18	nt	nt	nt	-15
C[N+](C)(C)CC(=O)O	nt	-5	-13	i	nt	-7	nt	nt	nt	nt
Cc1cc(N)n(C2CCN(C)CC2)n1	3.0	4	nt	nt	-10	-11	nt	nt	nt	-10

From PubChem BioAssay
